Bead autofluor: compound fluorescence in toxin protease inhibitor counterscreen; hit rate 3.1% among 360,000; fluorescence intensity (no concentration beside the values); compound autofluorescence counterscreen, microsphere flow cytometry; active compounds read high;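 active means at least 3 SD above the mean of all compounds, about 16000 in these data; inconclusive means too few beads counted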;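 further: 100 nL of 1 mM stock went into each well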
ugtP null kill: growth inhibition of ugtP-null S. aureus, primary screen, RN4220 ugtP deletion, OD600; 16 h; some inactives read as strong as hits; growth inhibition, % (test concentration not listed); hit rate 0.54% among 330,000; AID 1259309, 2017;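 active means z-score under -3 and OD600 up to 0.15 on both plates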;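 further: plate controls were untreated wells for no effect and antibiotic for full effect; wells of about 80 µL received 100 nL stock; the first replicate is given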
BJeLR lethal: MLPCN primary cell-based screen for lethality selective to Ras in HRASV12 cells | BJeLR (HRASV12) viability, CellTiter-Glo ATP luminescence, 48 h; reference of the scale not given here | inhibition, % (concentration not given with the values) | hit rate 0.17% among 300,000 | AID 1554, 2009;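 active means replicate mean above 50%; inconclusive means above 50% but judged a plate artefact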;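 further: 50 nL library stock added to about 25 µL; numbers are from one replicate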
Mtb hypoxia inh: PubChem AID 1159583; M. tuberculosis hypoxia-regulated fluorescent reporter, fluorescence; fluorescence inhibition, % (no concentration beside the values); hit rate 0.1% among 300,000;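 active means 35 to 45% if threefold the growth effect, above 45% if 1.5-fold the growth effect; inactive means the rest, general growth blockers included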;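 further: wells of about 50 µL received 100 nL stock; 0% = vehicle wells and 100% = reference inhibitor wells; whole bacteria with a GFP reporter of the hypoxia response; strong numbers were not always called active; many hits fall short of the cut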
PrP UTR inh: inhibition of PrP 5' UTR reporter expression. cell-based PrP 5' UTR mRNA reporter, plate reader. inhibition, % (concentration not given with the values). hit rate 0.35% among 340,000. AID 488862, 2010;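 active means every replicate at 50% or more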;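 further: 0 = median of the neutral control wells; tested in H4 reporter cells; numbers are from one replicate; inactives centre near -14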
RN4220 kill: growth inhibition of S. aureus RN4220, primary screen, OD600; 16 h; hit rate 0.33% among 330,000; inhibition, % (test concentration not listed);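 active means z-score of -3 or lower and OD600 up to 0.18 on both plates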;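 further: plate controls were untreated cells for no effect and reference antibiotic for full effect; stock transfer was 100 nL into about 80 µL; one replicate is shown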
Mtb hypoxia inh growth: second read-out of Mtb hypoxia inh, no call of its own (marks repeat the call); growth inhibition, %; measured here: M. tuberculosis growth (absorbance);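 0% = vehicle and 100% = reference antibiotic; read after six days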
An asterisk follows results filed as active; ? = inconclusive; nt = not tested or not shown. Not a hit list (roughly 4.1% active in at least one column).

compound	Bead autofluor	ugtP null kill	BJeLR lethal	Mtb hypoxia inh	Mtb hypoxia inh growth	PrP UTR inh	RN4220 kill
Cc1nn(Cc2ccc(F)cc2Cl)c(C)c1[N+](=O)[O-]	3113	-2	8	-5	-7	-6	-1.9
COc1ccc2[nH]c(=O)c(CN(C(=O)c3cccnc3)c3ccccc3C)cc2c1	4525	3	-6	6	13	-22	2.7
N/C(=N\OC(=O)COc1cc(Cl)c(Cl)cc1Cl)c1ccncc1	nt	-6	0	-6	1	nt	6.7
CC1(c2nnc(-c3ccccc3)o2)CC(c2cccnc2)=NO1 (configuration not stated)	3928	1	-6	17	20	-13	6.6
CCCN1CCC(NC(=O)Cc2ccc(C)cc2)CC1	3867	2	-1	4	19	1	0.4
Cc1ccc(Cn2ncc3c(N4CCN(c5ccccc5C)CC4)ncnc32)cc1	2838	14	7	-7	0	-25	-7.4
O=C(NN=Cc1ccc(N2CCOCC2)cc1)c1cccs1	nt	13	nt	8	8	nt	3.3
COCCCNC(=O)CNC(=S)N(Cc1cc(OC)c(OC)c(OC)c1)C1CCCC1	2574	-3	18	1	7	-19	2.9
O=C(CSc1ccc2nnc(-c3ccncc3)n2n1)Nc1ccc2c(c1)OCCO2	4007	2	7	0	9	-13	3.1
COC(=O)C1=C(c2cc3ccccc3s2)CC2CCC1N2C(=O)NCCNC(C)=O (configuration not stated)	nt	1	nt	20	13	nt	2.2
CN(Cc1ccccc1)S(=O)(=O)c1csc(C(N)=O)c1	5644	2	-6	4	10	12	1.6
O=C(CCN1CCCO1)N1CCCC(N2CCN(c3cccc(C(F)(F)F)c3)CC2)C1 (configuration not stated)	4504	-5	-5	-9	-4	-4	-0.3
Cc1cc(C(=O)CSc2nn3c(=O)c(C(C)(C)C)nnc3s2)c(C)n1C1CC1	5069	13	8	1	7	-12	11
CN1CCN(c2ccc(NC(=O)C(C)(c3ccccc3)c3ccccc3)cc2)CC1	3465	-2	-10	10	8	3	2.4
COc1cccc(C2(c3cccc(OC)c3)CC2C(=O)Nc2ccccc2Cl)c1 (configuration not stated)	2544	-2	-19	-1	5	-25	-1.5
CCCCCC(=O)N(CN1C(=O)CCC1=O)c1ccccc1	10796	0	2	2	1	-33	1.3
O=C1C2C(C(=O)N1CC1CCCO1)C1C=CC2C12CC2 (configuration not stated)	2819	-3	8	9	8	2	-7.4
O=C(NNC(=O)C1CCN(S(=O)(=O)c2c(Cl)cccc2Cl)CC1)c1ccccc1O	?	-3	11	9	-3	-31	6.4
COC(=O)c1c(NC(=O)c2ccccc2N(C)S(=O)(=O)c2ccccc2)sc2c1CCCC2	3547	21	25	1	7	-17	7.0
c1cncc(CSc2ccc(-c3ccc4c(c3)OCO4)nn2)c1	3830	nt	-3	nt	nt	-61	nt
CCC(=NNC(=O)c1cc(C)nc2ccccc12)c1ccc(C)s1	nt	4	nt	2	4	nt	4.2
O=c1cnnc(SCc2ccc([N+](=O)[O-])cc2)[nH]1	2191	14	nt	1	6	14	6.1
Cc1ccc(S(=O)(=O)N2CCN3CCCC3C2)cc1 (configuration not stated)	3004	2	0	11	3	-8	1.2
O=C(CSc1nnc(-c2ccc(C(F)(F)F)cn2)o1)Nc1ccccc1Cl	4222	4	12	11	-4	-53	3.2
Cc1[nH]c2ccccc2c1CCNCc1ccco1	6178	4	2	3	-1	-11	1.5
CCOC(=O)Cc1c(C)nc2c(-c3ccccc3)c(C)nn2c1C	4932	10	6	18	11	-45	5.7
CCc1cccc(NC(=O)C2CCCN2C(=O)Nc2ccc(C)cc2)c1 (configuration not stated)	4164	3	-12	13	16	-17	0.5
COc1ccc(S(=O)(=O)NCCS(=O)(=O)N2CCN(c3ccccc3)CC2)cc1	6471	1	4	-8	8	2	0.4
Cc1cccc(OCC(=O)Nc2nnc(S(=O)(=O)N3CCCCC3)s2)c1	5237	9	6	0	-5	-17	10
COc1ccc(NC(=O)C(C)Sc2ccccc2)cc1 (configuration not stated)	4722	10	-1	nt	nt	-43	0.7
Cc1nc2c(c(=O)c3ccccc3n2C)c(=O)n1-c1ccc(F)cc1	5992	-5	3	-8	3	-4	1.4
Cc1ccccc1OCC(=O)NCC(=O)OCC(=O)c1ccc2ccccc2c1	10609	-5	-1	5	7	-6	1.2
COc1cc(C(F)(F)F)ccc1C(=O)NCCc1ccco1	4287	7	-2	8	6	-17	5.0
O=C(NCc1cccc(Cl)c1)c1ccc(CS(=O)Cc2ccccc2Cl)o1 (configuration not stated)	4313	4	9	7	6	17	-0.3
CSc1c(-c2ccccc2)nc2ccccc2c1C(=O)O	6321	4	2	6	-1	-7	2.6
CCCCCOc1ccc(Br)cc1CSC(=N)N	2795	-14	33	11	5	-23	0.2
Cc1ccc(NC2=NCC(=O)N2Cc2cccs2)cc1C	2474	11	-3	-6	-3	15	0.8
COc1ccc([N+](=O)[O-])cc1NC(=O)N(C)Cc1ccco1	3622	3	-3	13	5	7	-1.1
CCN1C/C(=C/c2cccs2)c2nc3ccccc3c(C(=O)O)c2C1	5347	3	12	-5	1	nt	1.5
O=C(C(=O)N1CCCC1)c1c(-c2ccccc2)[nH]c2ccccc12	3522	-3	-10	-1	-1	-6	3.7

Entries of single compounds, looked up by structure:
O=C(NCc1cccc(Cl)c1)c1ccc(CS(=O)Cc2ccccc2Cl)o1 (configuration not stated) is listed with Bead autofluor: 4313; ugtP null kill: 4; BJeLR lethal: 9; Mtb hypoxia inh: 7; Mtb hypoxia inh growth: 6; PrP UTR inh: 17; RN4220 kill: -0.3
CSc1c(-c2ccccc2)nc2ccccc2c1C(=O)O is listed with Bead autofluor: 6321; ugtP null kill: 4; BJeLR lethal: 2; Mtb hypoxia inh: 6; Mtb hypoxia inh growth: -1; PrP UTR inh: -7; RN4220 kill: 2.6

(further entries)
compound	Bead autofluor	ugtP null kill	BJeLR lethal	Mtb hypoxia inh	Mtb hypoxia inh growth	PrP UTR inh	RN4220 kill
CC1=CC(c2ccccc2)n2nc(N3C(=O)CCC3=O)nc2N1 (configuration not stated)	4063	3	-26	18	5	-17	1.3
O=C(CCCN1C(=O)[C@H]2CC=CC[C@H]2C1=O)NCc1nc(-c2ccc(Cl)cc2)no1	6040	1	0	13	-3	-9	1.9
Cc1ccc(S(=O)(=O)N2CCCCC2)cc1C(=O)NCc1ccccn1	3525	-2	-11	10	-8	8	3.7
COc1ccccc1NC(=O)c1oc2ccc(C)cc2c1C	4563	25	6	nt	nt	-33	-4.9
COCCN1Cc2cc3cc(C)ccc3nc2SC1=Nc1ccc(OC)cc1	3767	7	7	3	-4	-35	3.9
Cc1[nH]cnc1CSCCN	4835	1	-1	nt	nt	-19	-1.8
Cc1cc(S(=O)(=O)NC2CCCCC2)ccc1OCC(=O)NCc1cccnc1	15483	-3	5	-3	1	-1	-0.9
CC1(C)Cc2nc3sc4c(=O)[nH]cnc4c3cc2CS1	3671	2	7	nt	nt	-18	13
CN(C)c1ccc(/C=N\NC(=O)c2cccc3cc[nH]c23)cc1	5998	nt	-3	nt	nt	-24	nt
O=C(COc1ncnc2ccccc12)Nc1cccc([N+](=O)[O-])c1	3935	nt	5	nt	nt	8	nt
C=CCSC1=N/C(=C\c2ccc(C(=O)O)cc2)C(=O)S1	?	14	-1	-1	-2	-14	7.7
O=C(CSc1nc(-c2ccncc2)nn1CC(=O)N1CCCCC1)NC1CCCC1	10937	-5	-10	-5	2	-21	-3.8
COCCn1c(N2CCN(c3ccc(OC)cc3)CC2)nc2c1c(=O)n(C)c(=O)n2C	17764*	2	3	1	-6	-39	1.2
CS(=O)(=O)Nc1ccc(C(=O)NCC2CCCO2)cc1 (configuration not stated)	4641	9	-7	nt	nt	-9	1.0
CCc1c(SCCC(=O)O)nc2ccccc2c1C	4490	9	3	5	1	-29	-8.6
CCC(=O)Nc1ccc(-c2cc3ccccc3oc2=O)cc1	1927	3	10	0	-19	-23	-0.8
CCCCC(=O)OCC(=O)c1ccc(OCC)cc1	5466	11	-2	11	1	-49	2.8
Cc1nn(C)cc1C1C2=C(CC(C)(C)CC2=O)N(c2ccccc2)C2=C1C(=O)CC(C)(C)C2	3433	0	5	1	12	8	1.3
Cc1ccc(C)n1-c1ccc(C(=O)Nc2ccccc2F)cc1	4402	5	-4	-7	10	-39	1.8
Cc1cccc(NC(=O)Cn2cnc3c(cnn3-c3ccc(F)cc3)c2=O)c1C	5812	4	11	6	6	-9	1.1
COc1ccc(N2CCN(c3nc(NC(C)(C)C)nc(N4CCCCC4)n3)CC2)cc1	2712	14	2	nt	nt	-24	-0.4
CCCCOc1ccc(-c2cc(C(=O)NNC(=S)NCC)c3ccccc3n2)cc1	7954	-8	21	-3	4	31	-0.5
Cc1cc(C)c(NC(=S)N(CCCN2CCN(C)CC2)Cc2cccs2)c(C)c1	3740	9	17	1	2	-3	-0.2
Cc1ccc(S(=O)(=O)NCC(=O)N(CC(=O)NCC2CCCO2)CC2CCCO2)cc1 (configuration not stated)	3111	7	-5	12	1	-21	8.8
CC(C)OC(=O)Cn1nc(C(F)(F)F)c2c1CCCC2	4504	0	-6	7	5	-16	5.9
O=C(Nc1cccc(S(=O)(=O)N2CCCCC2)c1)Nc1ccc(Cl)cc1Cl	2721	13	-5	-4	-9	-8	18
c1ccc(CNc2c3c(nc4ccccc24)CCC3)cc1	nt	-9	6	9	4	-11	1.5
Cc1cccc(/C=N/N(CCO)C2=NS(=O)(=O)c3ccccc32)c1	2811	nt	-1	nt	nt	12	nt
CSc1ncc(-c2ccc(Cl)cc2)[nH]1	nt	6	-9	8	4	-86	1.6
O=S(=O)(c1cc(Cl)ccc1Cl)N1CCCCC1	9669	4	12	11	6	-29	0.4
O=C(O)C1C2C=CC(C2)C1C(=O)NC1CCS(=O)(=O)C1 (configuration not stated)	4227	-4	-5	11	6	-14	-11
CCC(NC(=O)c1ccccc1NC(=O)c1ccc(C)cc1)C(=O)O (configuration not stated)	10664	-1	11	10	6	-31	2.8
COC(=O)CCCC(=O)N1CCC(CO)(CCc2ccccc2)CC1	nt	9	-8	3	-6	2	3.3
CCOc1nc(NCCN2CCOCC2)nc(NC(C)C)n1	4754	9	-9	nt	nt	-6	-1.8
COc1ccc(C(=O)Nc2cc3c(cc2Cl)OCCCO3)cc1	3341	9	1	13	15	-91	8.6
Cc1cc(OCC(=O)c2cccc(C(F)(F)F)c2)n2cnnc2n1	4622	13	-6	4	-6	-11	1.7
CCOc1ccccc1N(CC(=O)O)S(=O)(=O)c1ccccc1	3646	0	nt	nt	nt	-12	2.9
Nc1cc2c(cc1[N+](=O)[O-])OCCO2	2033	2	0	6	-5	-7	1.4
O=C(CN1CCOCC1)Nc1c2c(nc3ccccc13)N(Cc1ccccc1)CC2	2782	8	-2	15	12	-26	10
CN(C)c1ccc(CNC(=O)CN2C(=O)COc3ccc(S(=O)(=O)N4CCCC4)cc32)cc1	6211	1	-13	15	3	-2	1.0
Cn1c(CNC(=O)C(C)(C)C)nc2ccccc21	10101	3	-13	4	8	-30	-2.2
Cc1ccc(Cn2cc(/C=N/NC(=O)Cc3nnc(NC(=O)c4ccc(C)cc4)s3)c3ccccc32)cc1	3371	nt	2	nt	nt	-24	nt
CCN(CC(=O)NCc1cccs1)C(=O)/C=C/c1cccc(OC)c1OC	?	8	13	8	-1	-11	1.6
CCOC(=O)N1CCC(NC(=O)C2=C(C)C(=O)OC23CCC(C)CC3)CC1 (configuration not stated)	4228	1	-1	-4	-1	-17	2.3
COc1ccccc1N1CCN(CCCOc2ccc(F)cc2)CC1	3164	3	1	3	0	-14	-1.9
CN(CC(=O)N1CCCC1)S(=O)(=O)c1ccc(Cl)cc1	9850	1	-2	13	12	-24	3.6
CC(C)(C)C(=O)C(Cc1ccccc1)n1cncn1 (configuration not stated)	3234	5	0	nt	nt	-20	2.6
CN(Cc1ccccc1)C(=O)Cn1nc(C(F)(F)F)c2c1CCC2	4668	3	-3	nt	nt	-35	3.9
S=C(NCC1CC1)N/N=C/c1ccccc1Cl	6484	nt	-17	nt	nt	-18	nt
CCC(C(=O)Nc1ccc2c(c1)OCCO2)n1nnc2ccccc2c1=O (configuration not stated)	5227	7	5	1	3	-49	2.6

Assay outcomes (PubChem)
